Source: PubChem BioAssay
FEN1 inh – blocks human flap endonuclease 1. P39748. Recombinant FEN1 flap cleavage, fluorescence, 15 min. Potency, µM (series often up to 114 µM), inactives show at the top dose activity change, negative = inhibition, most hits filed as inhibitors. 390,000 compounds, 0.35% hits; note: nearly all actives have a fitted effect of over 65% in size
Target sequence (P39748 whole entry, looked up): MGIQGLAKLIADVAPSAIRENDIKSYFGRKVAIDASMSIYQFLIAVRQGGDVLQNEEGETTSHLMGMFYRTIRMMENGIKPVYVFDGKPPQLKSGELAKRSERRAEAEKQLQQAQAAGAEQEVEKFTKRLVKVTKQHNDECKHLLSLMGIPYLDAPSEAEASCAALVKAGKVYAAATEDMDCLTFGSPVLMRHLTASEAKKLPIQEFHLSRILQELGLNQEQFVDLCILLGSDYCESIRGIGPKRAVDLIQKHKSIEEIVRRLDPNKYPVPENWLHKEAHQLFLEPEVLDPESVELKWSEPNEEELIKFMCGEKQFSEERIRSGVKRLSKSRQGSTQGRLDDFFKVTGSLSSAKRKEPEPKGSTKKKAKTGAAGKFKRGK
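Quantitative HTS format: each compound was titrated, incubated with 10 nM nuclease for 15 min at room temperature, then challenged with flap substrate at 50 nM final. Signal change over 15 min gave concentration–effect curves.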
N370S GC – inhibitors or activators of N370S glucocerebrosidase for Gaucher disease; P04062; N370S GC spleen homogenate, 4MU-glucoside fluorescence; Potency, µM (series often up to 59.4 µM), for the others: top-dose activity change, negative = inhibition, actives largely listed as inhibitors; 330,000 compounds, 0.092% hits; AID 2101;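 note: 0% = full enzyme activity and -100% = no enzyme basal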
The depositor's hits bear a star; u = inconclusive; x = no result given; & = joins results of further samples. Calls come from the whole dose curve; as a rule, active = well fitted curve in the direction sought with a large enough effect; inconclusive = small, poorly fitted or top-dose-only effect, or another doubt; inactive = no such curve, though single readings can be large; an effect the other way counts as inactive or inconclusive. Unless noted, % is set by controls: 0 for no effect and ±100 for the full control effect; potency is the fitted concentration of half-maximal effect. These rows are one share of the data, and most or all hits are left out here.

Structure	FEN1 inh	N370S GC
O=C(O)c1ccc(N(Cc2ccccc2)S(=O)(=O)c2ccccc2)cc1	-8.7%&-0.8%	3.4%&2.0%
COc1ccccc1NC(=O)CSc1nnc(-c2ccc(C)cc2)o1	-4.2%	0.0%
O=C(C1CCCN(S(=O)(=O)c2ccc(Br)s2)C1)N1CCN(c2cccc(Cl)c2)CC1 (stereo not drawn)	-0.6%	x
CS(=O)(=O)NNC(=O)c1cc2cc3ccccc3nc2s1	4.4%	7.4%
CN(Cc1ccccc1)C(=O)CN1C(=O)NC2(CCCCCCC2)C1=O	-0.3%	x
COc1c(C)cc(Br)cc1C(=O)NCc1cccnc1	0.8%	1.6%
CC(=O)Nc1ccc(NC(=O)C/C(C)=N/NC(N)=S)cc1	-5.7%	-6.5%
COc1ccc(C(=O)OCC(=O)NC(C)CCc2ccccc2)cc1 (stereo not drawn)	1.1%	4.1%
CC(=O)c1c(C(C)=O)c(C)n(NC(=O)c2ccc(Cl)cc2)c1C	6.7%	-21.1%
CC(C)(C)C(=O)/C(=C/c1ccc(Cl)cc1)n1cncn1	14.1%	-5.6%
CCCn1c(SCC(=O)NCc2ccccc2Cl)n[nH]c1=O	12.0%	-6.2%
CCc1nnc(NC(=O)c2oc3ccc(Br)cc3c2C)s1	-2.3%	x

One compound at a time, as listed above. Screens in order: FEN1 inh	N370S GC
`COc1c(C)cc(Br)cc1C(=O)NCc1cccnc1` as listed: 0.8%	1.6%
`COc1ccccc1NC(=O)CSc1nnc(-c2ccc(C)cc2)o1` as listed: -4.2%	0.0%

(list continues)
Structure	FEN1 inh	N370S GC
CNC(=S)NNC(=O)c1sccc1OCc1cccc(C(F)(F)F)c1	-9.1%	3.5%
C#CCSc1ncc(-c2ccccc2)cn1	2.1%	22.4%
O=C(COC(=O)C12CC3CC(CC(Br)(C3)C1)C2)NNC(=O)c1ccccc1	4.2%	x
CC1C(=O)Nc2ccccc2N1C(=O)c1ccc(F)cc1 (stereo not drawn)	0.0%	-0.7%
CCN1CCN(CCn2c(=S)[nH]c3ccccc3c2=O)CC1	-6.4%	12.4%
CCn1c(SCC(=O)N/N=C/C(C)=C\c2ccco2)nnc1-c1ccccc1	7.2%	-1.0%
Cc1c(-c2c(C#N)c(N)nc3c2CCCCCC3)cnn1C	-0.2%	7.8%
Nc1ncnc2nc(SCC(=O)Nc3cccc(C(F)(F)F)c3)[nH]c12	-1.8%	-5.0%
CCC(=O)N1c2ccccc2CC1C(=O)NCCc1ccc(Cl)cc1 (stereo not drawn)	3.4%	x
CC(=O)c1ccc(Nc2cc(C)nc3nc(Cc4ccccc4)nn23)cc1	-6.5%	x
COC(=O)C1=CN(Cc2ccc(OC)c(OC)c2)C=C(C(=O)OC)C1c1cccs1	4.8%	12.6%
Cc1nn2c(-c3ccccc3)ccnc2c1-c1ccccc1	-9.8%	19.2%

Reprinted from the part before: two entries, followed by the next part.
Structure	FEN1 inh	N370S GC
COC(=O)C1=CN(Cc2ccc(OC)c(OC)c2)C=C(C(=O)OC)C1c1cccs1	4.8%	12.6%
Cc1nn2c(-c3ccccc3)ccnc2c1-c1ccccc1	-9.8%	19.2%
C/C(CC(=O)NCc1ccco1)=N\NC(=O)C(c1ccccc1)c1ccccc1	-7.0%	16.3%
CC(C)OCCCNC(=O)C1CCC(=O)N1C1CCCC1 (stereo not drawn)	-2.1%	-6.2%
O=C(CCC1CCCN(C(=O)c2cccc(F)c2)C1)N1CCN(c2ccccn2)CC1 (stereo not drawn)	7.2%	0.9%
O=C(CCCc1ccccc1)Nc1cccc(C(=O)O)c1	11.2%	-4.8%
CCc1cc(CNC(=O)CC2C(=O)NCCN2CC2CCCCC2)on1 (stereo not drawn)	-3.3%	-2.1%
N#CCCN1CCN(S(=O)(=O)c2ccc(S(=O)(=O)NC3CCCCC3)cc2)CC1	11.6%	-4.3%
Cc1ccc(C(=O)OCC(=O)Nc2ccc(Cl)cn2)s1	0.4%	x
COc1ccc(C(C#N)N2CCCCCC2)cc1OC (stereo not drawn)	3.0%	1.2%
S=C(Nc1nc2c(s1)CCCC2)NC1CC1	13.7%	0.3%
Cn1cnnc1SCC(=O)NN(c1ccccc1)c1ccccc1	0.3%	-0.3%
COC(=O)c1c(C(=O)OC)c2n(c1C)Cc1ccccc1C2	0.5%	10.4%
COc1ccc(N2CC(C(=O)NCCN3C(=O)S/C(=C\c4cccnc4)C3=O)CC2=O)c(OC)c1 (stereo not drawn)	-8.0%	-4.8%

Structure	FEN1 inh	N370S GC
COc1ccc(C(=O)CC(c2ccccc2)S(=O)(=O)c2ccc(C)cc2)cc1 (stereo not drawn)	x	1.6%
CC1CCCC(NC(=O)C2N(CCCN3CCCC3)C(=O)C3C(C(=O)Nc4ccc(Cl)cc4)C4C=CC32O4)C1C (stereo not drawn)	4.4%	-18.0%
CCNc1ncc2nc(-c3ccccc3)c(=O)n(Cc3cccs3)c2n1	x	23.6%
O=C1CC(c2ccccc2)CC(O)=C1C=NCC1CCCO1 (stereo not drawn)	1.2%	-21.5%
CCN(CC)c1ccc(C2C3CCCCC3(O)CCN2C(=O)c2cccs2)cc1 (stereo not drawn)	-3.5%	1.4%
COc1ccccc1NC(=O)Cn1nnc(C(=O)NCc2ccc3c(c2)OCO3)c1N	-3.6%&14.2%	2.0%
O=C1C2CC=CCC2C(=O)N1c1ccc(N2CCN(c3ccccn3)CC2)c([N+](=O)[O-])c1 (stereo not drawn)	11.8%	-17.5%
CCOC(=O)c1c(N2C(=O)CC(Sc3ccccc3C(=O)O)C2=O)sc(C)c1C (stereo not drawn)	-16.8%	-13.3%
COc1ccc2c(c1OC)C(=O)N(c1cccc(C)c1)C2	-0.3%	6.5%
c1ccc(-c2ccn3nnnc3n2)cc1	-8.0%	0.9%
O=C(CCSCc1ccccc1Cl)N1CCN(c2ccc(F)cc2)CC1	-24.4%	x
CC1=CC(C)(C)N(C(=O)C(C)N2C(=O)c3ccccc3C2=O)c2ccc(C)cc21 (stereo not drawn)	-15.8%	24.5%

Two of the compounds above, field by field.
O=C(O)c1ccc(N(Cc2ccccc2)S(=O)(=O)c2ccccc2)cc1
  FEN1 inh: -8.7%&-0.8%	N370S GC: 3.4%&2.0%

COc1ccccc1NC(=O)CSc1nnc(-c2ccc(C)cc2)o1
  FEN1 inh: -4.2%	N370S GC: 0.0%

Remaining list, next part.
Structure	FEN1 inh	N370S GC
N#Cc1cccc(-n2nnnc2-c2ccc3c(c2)OCO3)c1	-10.7%	-13.6%
COc1ccc(CNC(=O)c2cc(C3CC3)nc3c2cnn3C(C)C)cc1OC	13.1%	x
COC(=O)c1ccc(COc2ccc(/C=N/Nc3nc(C)cc(=O)[nH]3)cc2)cc1	u	2.1%
Cc1cc(C)n(-c2ccc(C(=O)NC3=NCCS3)cc2)n1	-6.0%	-4.8%
CN1CCN(c2ccccc2NC(=O)c2ccc(-c3ccccc3[N+](=O)[O-])o2)CC1	-21.6%	-19.3%
CCOC(=O)c1ccc(OCC2NCCc3cc(OC)c(OC)cc32)cc1 (stereo not drawn)	-5.2%	-4.6%
CCNC(=O)NC(=O)CSc1ccc(S(=O)(=O)N(C)C2CCCCC2)cn1	4.4%	x
Cc1cc(C)cc(OCC(=O)N(Cc2ccc(Cl)cc2)C2CCS(=O)(=O)C2)c1 (stereo not drawn)	-17.3%	x
COc1cc(NC(=O)CCc2nnc3ccc(N4CCCC4)nn23)cc(OC)c1OC	0.8%	-1.3%
CCN(CC)S(=O)(=O)c1ccc(NC(=O)COc2cccc(-n3cnnn3)c2)cc1	-6.6%	x
CCOc1ccc(S(=O)(=O)N2CCC(C(=O)N3CCOCC3)CC2)cc1C	1.1%	-6.2%
COc1ccc(Cc2nnc(NC(=O)C(C)C)s2)cc1	1.1%	-5.0%

Structure	FEN1 inh	N370S GC
CCOc1cccc(CNCCSc2nnnn2C)c1	-3.1%	7.7%
COc1ccc(CCNC(=S)NC(=O)/C=C/c2ccc(C)cc2)cc1OC	-14.3%	-2.7%
Cc1nc2ccccc2cc1C(=O)N/N=C/c1ccco1	1.5%	8.0%
Cc1nc(CC(=O)NNS(=O)(=O)c2cccc(Cl)c2Cl)cs1	-9.1%	x
CC1Sc2ccc(S(=O)(=O)CCC(=O)N3CCN(c4cccc(Cl)c4)CC3)cc2NC1=O (stereo not drawn)	-0.1%	-9.9%
CCOc1ccc(CN(C)C(=O)[C@H](C)NC(=O)c2ccco2)cc1OC	7.7%	1.0%
CC1CC(C)CN(CCCNC(=O)c2ccc3c(c2)ncn3C2CCCC2)C1 (stereo not drawn)	17.5%	0.3%
O=C(c1ccccc1)c1cccc(C(=O)c2ccccc2)c1	10.4%	x

4 compounds from above, sorted by the number in FEN1 inh, high to low:
Molecule,FEN1 inh,N370S GC
CC1CC(C)CN(CCCNC(=O)c2ccc3c(c2)ncn3C2CCCC2)C1 (stereo not drawn),17.5%,0.3%
Cc1nc2ccccc2cc1C(=O)N/N=C/c1ccco1,1.5%,8.0%
CCOc1cccc(CNCCSc2nnnn2C)c1,-3.1%,7.7%
Cc1nc(CC(=O)NNS(=O)(=O)c2cccc(Cl)c2Cl)cs1,-9.1%,x
